# miR-21 reporter: raises the signal of a miR-21 reporter. Potency, µM (top dose mostly 38.3 µM), inactives show at the top dose reporter change, positive = more light. 340,000 tested, under 10 active. AID 2288. HeLa miR-21 FLuc reporter, luciferase, 48 h; active = well fitted rising curve with a large enough effect; inconclusive = small, poorly fitted or top-dose-only effect; inactive = no such curve, though single readings can be large or run the other way;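 also: % of control where 0% means no effect; miR-21 action dims this reporter so a rising signal means less miR-21 action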
#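 HeLa cells endogenously expressing miR-21, stably carrying CMV-driven firefly luciferase with a downstream miR-21 binding site, 2000 cells/well. Titrations up to approximately 40 uM, 48 hours; luciferase luminescence read.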
# Rango dissoc inh: inhibition of RanGTP-driven Rango-importin beta dissociation | O95149+P62826 | AID 540253 | Potency, µM (top dose mostly 46.1 µM), without a hit: top-dose activity change, negative = inhibition | 340,000 compounds, 0.071% hits | Biochemical FRET Rango-importin beta, RanGTP-induced dissociation; active means falling FRET ratio curve, often poorly fitted, with flat reads before Ran was added; inconclusive means other falling curves, or compound fluorescence or quenching; inactive means flat or rising ratio curve;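 also: potency is read from the fitted curve at half-maximal effect; % of control where 0% means no effect; nearly all actives have a fitted effect of over 45% in size; -100% = wells without RanGTP and RCC1; the record marks most hits as doubtful in a second field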
#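 Recombinant Rango FRET biosensor (EYFP–snurportin 1 IBB–cerulean CFP10) at 0.1 uM premixed with 0.25 uM importin beta in PBS, 1 mM DTT, 0.02% Tween-20, 0.1% BSA. Compound added 5 min; RanGTP-RCC1 (0.6 uM Ran, 2 mM GTP, 0.2 uM RCC1) then triggers release, read at 45 min.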
# GLA inh pH 4.5: blocks human alpha-galactosidase A at pH 4.5. purified enzyme, 4-MU-alpha-Gal fluorescence, pH 4.5. activity change, negative = inhibition, % at 105 µM. 230,000 tested, under 10 active; inconclusive = small, poorly fitted or top-dose-only inhibition, or a rising curve; inactive = flat fitted curve, though single readings scatter; no compound was filed as active;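 also: 0% = full activity with enzyme and -100% = basal without enzyme; dose as in the result columns while the protocol names 77 µM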
# Target sequence (P06280 whole entry, looked up): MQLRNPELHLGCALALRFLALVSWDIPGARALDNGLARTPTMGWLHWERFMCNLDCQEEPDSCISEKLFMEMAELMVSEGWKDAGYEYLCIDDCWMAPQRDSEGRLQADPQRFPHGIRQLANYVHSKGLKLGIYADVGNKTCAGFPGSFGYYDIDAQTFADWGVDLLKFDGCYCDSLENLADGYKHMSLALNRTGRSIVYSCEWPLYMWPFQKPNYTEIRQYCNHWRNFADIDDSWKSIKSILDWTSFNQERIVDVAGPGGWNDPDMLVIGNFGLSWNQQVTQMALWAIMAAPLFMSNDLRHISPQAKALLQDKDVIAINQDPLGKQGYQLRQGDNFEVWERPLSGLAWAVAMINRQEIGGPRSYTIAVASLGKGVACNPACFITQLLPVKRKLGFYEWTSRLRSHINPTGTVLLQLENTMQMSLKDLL
# Rango-impB inh: prevents formation of the Rango-importin beta complex; 340,000 compounds, 0.031% hits; Q14974; Potency, µM (top dose mostly 92.2 µM), without a hit: at the highest dose inhibition of complex formation; AID 540263; Rango CFP/YFP FRET sensor + importin beta, 45 min; active = rising FRET ratio curve, often small or poorly fitted; inconclusive = mostly compound fluorescence or quenching in the first reads; inactive = flat curves in all reads;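 also: potency is read from the fitted curve at half-maximal effect; 0% = DMSO wells and 100% = buffer wells lacking importin beta; nearly all actives have a fitted effect of over 15% in size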
#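 FRET biosensor (snurportin 1 IBB flanked by EYFP and cerulean), 50 nM, with compound 5 min, then 0.125 microM importin beta in PBS, 1 mM DTT, 0.02% Tween-20, 0.1% BSA. CFP/YFP ratio read after 45 min at room temperature; pre-read flags interference.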
# * hit, by the source's call; u = inconclusive; x = not tested or not shown; & = joins results of further samples. Only part of the results is shown; the hit share may differ from the screen's.
SMILES,miR-21 reporter,Rango dissoc inh,GLA inh pH 4.5,Rango-impB inh
CCOc1ccc(N=Nc2c(=O)[nH]n3c(=O)cc(C)[nH]c23)cc1,-29%,40%,-9,5.9%
CC(C)(C)c1nc2c(Br)cc(Br)cc2c(=O)o1,-9%,-7%,9,-3.4%
CCOC(=O)c1sc2nc(C)nc(Nc3ccc(OC)c(OC)c3)c2c1C,-1%,1%,0,-3.3%
CC(C)CC(=O)Nc1nnn(C)n1,2%,1%,0,-0.2%
COc1cc(OC)c(NS(=O)(=O)c2cc3[nH]c(=O)c(=O)[nH]c3cc2C)cc1Cl,0%,5%,x,u
COc1ccccc1N/C(N)=N/c1nc(CSc2ccc(C)cc2)cc(=O)[nH]1,-5%,0%,-9,-2.7%
O=c1[nH]c(=S)[nH]c2sc3c(c12)CCCCCC3,-8%,-3%,x,-1.2%
CCOC(=O)C1CCC(CN(Cc2ccccc2C)S(=O)(=O)c2ccc([N+](=O)[O-])cc2)CC1 (stereo not given),1%,13%,-2,2.4%
COc1cccc(S(=O)(=O)NCc2ccc(C(=O)N3CCN(C)CC3)cc2)c1,1%,5%,x,-3.1%
CCc1cccc2c(C#N)cn(CC(=O)NCCOC)c12,-6%,-4%,-1,2.1%
Cc1ccc(C(=O)Nc2nc(=O)n(C(=O)c3ccccc3Cl)s2)cc1,-27%,-12%,3,-1.2%
CC(C)CC(=O)N(c1ccc(F)cc1)C1C=CS(=O)(=O)C1 (stereo not given),-3%,7%,8,2.0%
Cn1nnc2cc(C(=O)NCCC3=CCCCC3)ccc21,-23%,7%,4,1.3%
CCC(=O)Nc1ccccc1Sc1ncnc2scc(-c3ccccc3)c12,-5%,0%,-9,-1.6%
CC(=O)NC1=NN(C(C)=O)C(c2cccs2)S1 (stereo not given),-4%,1%,-1,2.0%
O=C(Nc1ccccn1)c1ccccc1,x,-4%,x,-0.2%
CCOc1ccc(CNC(=O)C2CCCN(S(=O)(=O)N3CC(C)CC(C)C3)C2)cc1OC (stereo not given),-15%,16%,x,-2.0%
Cc1ccc(CSCC(=O)N2CCN(Cc3ccc4c(c3)OCO4)CC2)cc1,-4%,0%,-24,-2.6%
CN1CCN(c2nc(-c3ccccc3)ncc2S(=O)(=O)c2ccccc2)CC1,-8%,3%,-17,1.2%
O=C(CN1C(=O)C2CC=CCC2C1=O)OCC(=O)c1ccc(Cl)c([N+](=O)[O-])c1 (stereo not given),-1%,-7%,x,1.5%
Cc1ccc(S(=O)(=O)Nc2ccccc2C(=O)OC(C)C(=O)Nc2ccc3ccccc3c2)cc1[N+](=O)[O-] (stereo not given),11%,4%,0,4.0%
O=[N+]([O-])c1ccc(Nc2nc(Cl)nc(NCCO)n2)cc1,1%,-15%,-1,u
COc1cc(/C=N/NC(=O)c2cc(C3CC3)[nH]n2)ccc1O,-13%,-1%,-11,-0.2%
O=C(Cc1ccccc1)N1CCN(S(=O)(=O)c2cccc([N+](=O)[O-])c2)CC1,3%,6%,-2,-0.4%
Cc1ccc(S(=O)(=O)NC2=NCN(CCc3ccccc3)CN2)cc1,0%,1%,12,0.8%
O=c1c2ccccc2nc2n1C(CBr)CS2 (stereo not given),7%,16%,4,-0.1%
Cc1cc(NC(=O)CN2C(=O)NC3(CCCCCC3)C2=O)no1,2%,-11%,3,0.5%
CCCC(=O)Nc1nnc(CC(=O)N2CCCC2)s1,-5%,-8%,3,-0.5%
Cc1cccc2c(=O)cc(C)n(CC(=O)N3CCCCC3)c12,-9%,-6%,2,5.9%
O=C(CN1C(=O)C2C3CC(C(Br)C3Br)C2C1=O)OCC(=O)c1cccc([N+](=O)[O-])c1 (stereo not given),0%,-2%,-3,1.3%
Cc1ccccc1N1CCN(Cc2ccc(Br)o2)CC1,-1%,-3%,x,-0.6%
O=C(c1ccc(-c2ccccc2)cc1)c1ccc([N+](=O)[O-])cc1,-3%,x,4,x
Nc1ccccc1C(=O)NCC1(c2ccccc2)CCCC1,-2%,-3%,x,1.2%
O=C(NNc1cc(N2CCOCC2)nc(N2CCOCC2)n1)c1ccc([N+](=O)[O-])cc1,0%,-11%,3,u
O=C(NCCS(=O)CCNC(=O)C(F)(F)F)C(F)(F)F,0%,-10%,6,-1.8%
COc1ccc(-c2cc(C(=O)Nc3c(C)n(C)n(-c4ccccc4)c3=O)no2)cc1OC,1%&1%,9%,1,-5.5%
O=C(Cc1ccccc1)NCC(=O)N/N=C/c1cccnc1,-1%,1%,6,-1.1%
O=C(NCC(c1cccnc1)N1CCN(c2ccccc2F)CC1)C1CCCCC1 (stereo not given),1%,-1%,8,0.0%
O=C1CC(c2ccc(S(=O)(=O)NCc3ccncc3)cc2)CN1 (stereo not given),2%,1%,-2,-0.3%
CCc1ccc(NC(=O)CC2S/C(=N/N=C3CCCCCC3)NC2=O)cc1 (stereo not given),-4%,-2%,x,0.8%
CC(Cc1ccccc1)Nc1ncnc2c1ncn2C1OC(CO)C(O)C1O (stereo not given),x,-15%,x,-4.2%
CCOC(=O)c1sc2nc(C)cc(-c3ccccc3)c2c1N,-18%,u,0,u
O=C(N/N=C/c1cccnc1)c1cccc(S(=O)(=O)N2CCCC2)c1,-2%,1%,11,-2.5%
COc1cccc(-n2nnnc2SCC(=O)Nc2cccc(C)n2)c1,0%,-6%,-1,-0.6%
Cc1nc(N)sc1-c1nnc(SCC(=O)Nc2ccccc2C(F)(F)F)n1C,0%,-12%,7,-2.0%
C#CCOCCOCCOCCNc1nc(N2CCN(C(=O)[C@H](C(C)C)n3cc(CCO)nn3)CC2)nc(N2CCN(C(=O)[C@H](CCCCN)n3cc(CCCC)nn3)CC2)n1,-2%,32%,-26,-2.4%
Cc1nc(N2CCN(c3ccccc3)CC2)[nH]c(=O)c1CCC(C)C,-1%,-10%,-4,-1.6%
Cc1coc2c(C)c3oc(=O)c(CCC(=O)NCCN4CCOCC4)c(C)c3cc12,-5%,3%,x,-0.3%

# Four records drawn at random from those above:
SMILES,miR-21 reporter,Rango dissoc inh,GLA inh pH 4.5,Rango-impB inh
O=C(Nc1ccccn1)c1ccccc1,x,-4%,x,-0.2%
COc1cc(/C=N/NC(=O)c2cc(C3CC3)[nH]n2)ccc1O,-13%,-1%,-11,-0.2%
COc1ccc(-c2cc(C(=O)Nc3c(C)n(C)n(-c4ccccc4)c3=O)no2)cc1OC,1%&1%,9%,1,-5.5%
Cc1ccc(S(=O)(=O)Nc2ccccc2C(=O)OC(C)C(=O)Nc2ccc3ccccc3c2)cc1[N+](=O)[O-] (stereo not given),11%,4%,0,4.0%

# The results go on.
SMILES,miR-21 reporter,Rango dissoc inh,GLA inh pH 4.5,Rango-impB inh
Cc1ccc(N2C(=O)C3NN=C(C(=O)OCc4ccccc4)C3C2=O)cc1 (stereo not given),1%,10%,-2,-3.4%
CCCNC(=O)CCn1nc(-c2ccccc2)c2ccccc2c1=O,3%&-5%,0%,x,-0.1%
c1ccc(CN2CCN(CCOCCOc3cccc4ccccc34)CC2)cc1,4%,-3%,0,-2.0%
Cc1csc2ncc(C(=O)NC(C)c3ccccc3)c(=O)n12 (stereo not given),-13%,-7%,20,0.2%
O=C(c1cccn2c(=O)c3ccc(Cl)cc3nc12)N1CCN(Cc2ccc3c(c2)OCO3)CC1,-5%,-12%,3,-2.4%
COc1ccc(/C=C/C(=O)NCCSCc2ccco2)cc1,-9%,-1%,-1,0.4%
CCCCN(C)CCCNC(=O)Cn1c(=O)sc2ccccc21,-10%,-2%,6,0.3%
O=c1[nH]c(=S)c2[nH]c(=S)n(-c3ccccc3)c2[nH]1,x,11%,x,7.6%
Nc1cccc2c1C(=O)N(C(=O)c1cccc(S(=O)(=O)N3CCCC3)c1)C2=O,-1%,u,1,u
CCOc1ccc(/C=C/c2nc(C#N)c(NCCCN(C)C)o2)cc1,-27%&-32%,-15%,x,-0.6%
CCc1ccc(NC(=O)c2cnc3scc(C)n3c2=O)cc1,-39%,-21%,6,-4.4%
O=S(=O)(c1ccc(Cl)cc1)N1CCN=C1SCc1cccc(Cl)c1,-10%,13%,1,-0.4%
Cc1ccc(O)c(NC(=O)COc2cc(C)ccc2C)c1,-8%,-5%,-11,0.0%
CCOC(=O)c1cc2sc(C)cc2n1CC(=O)N1CCOCC1,1%,-1%,5,-1.5%
CCOC(=O)/C=C/C(=O)OCC(=O)Nc1ccc(Cl)cn1,-1%,1%,-8,-0.2%
CCc1ccc(NC(=O)CSc2nnc(CNC(=O)c3ccco3)o2)cc1,-2%,6%,x,4.3%
O=C(NNC(=O)c1cccc(-n2cnnn2)c1)c1ccccc1,-1%,-13%,5,-0.7%
O=S(=O)(c1ccccc1C(F)(F)F)N1CCOCC1,7%,6%,-3,1.7%
CCN(C(=O)Cc1nc(N)n[nH]1)C1(C(=O)Nc2ccccc2)CCCCC1,-1%,-3%,3,1.9%
C=CCc1ccc(OCC(O)CN2CCN(Cc3ccccc3)CC2)c(OC)c1 (stereo not given),1%,1%,2,-2.6%
C=CC[C@H](CC(=O)NCCO)C(=O)N[C@H](COC(=O)[C@@H](CC=C)Cc1ccc(F)cc1)c1ccccc1,x,22%,x,1.3%
CCC1CCCCN1C(=O)C1CC(c2cc(Cl)c(OC)cc2OC)=NO1 (stereo not given),-9%,0%,-5,-1.7%
C/C(=N\NC(=O)c1cccc(N/N=C(\C)c2ccco2)c1)c1ccco1,-60%,-14%,-4,3.1%
O=C(CC1(CC(=O)N2CCOCC2)CCCC1)Nc1ccccc1,x,1%,x,-2.5%
Cc1cc(C)c2c(N=NN3CCOCC3)[nH]nc2n1,-26%,0%,-8,-0.3%
O=C(Cc1cc(=O)[nH][nH]1)N/N=C/c1cccc2ccccc12,0%,5%,-6,4.0%
Cc1ccc(S(=O)(=O)N/N=C/c2c(F)cccc2Cl)cc1,-3%,11%,-2,3.4%
Cc1ccc(NC(=O)COC(=O)CN2C(=O)c3ccccc3C2=O)cc1,x,-12%,x,-0.1%
C=CCc1cccc2cc(C(=O)NC)c(=O)oc12,-4%,-10%,-7,-0.7%
CC1Cc2ccccc2N1S(=O)(=O)c1cnc(Cl)c(Cl)c1 (stereo not given),1%,0%,-4,-1.5%
CN(C)CCN(C(=O)/C=C/c1cccs1)c1nc2ccc(Br)cc2s1,-5%,-6%,x,-0.5%
O=C(O)CSCC(=O)Nc1ccc(C(=O)O)cc1,-2%,8%,4,-1.4%
Cc1ccc2cc(/C=C(\C#N)C(N)=O)c(N3CCCCC3)nc2c1,-7%,0%,6,u
COc1ccc(C(NC(=O)CNC(C)=O)C(=O)Nc2ccc(C(C)C)cc2)cc1 (stereo not given),-7%,1%,-15,0.5%
FC(F)(F)c1ccccc1NC(=S)NC1CCN(Cc2ccccc2)CC1,0%,15%,2,1.1%
CCc1ccc(N2CC(C(=O)N/N=C/c3cc([N+](=O)[O-])ccc3O)CC2=O)cc1 (stereo not given),23%,-2%,-4,5.6%
CN(Cc1ccccc1)CC(O)COc1ccc(CNCCc2ccncc2)cc1 (stereo not given),-5%,-9%,9,1.0%
Cc1ccc(-c2csc3ncnc(Oc4ccc5c(C)cc(=O)oc5c4)c23)cc1,-3%,31%,0,-5.3%
O=C(Nc1ccc(Cl)cc1)N(Cc1nc2ccccc2c(=O)[nH]1)Cc1cccs1,u,-7%,-2,-2.3%
CC(=O)c1cccc(NC(=O)NCCc2ccc(Cl)cc2)c1,-14%,-2%,x,-3.4%
CCOc1ccc(NC(=O)C(C)N2C(=O)c3ccccc3S2(=O)=O)cc1 (stereo not given),x,6%,x,0.0%
CC(/C=C/c1ccco1)=N\NC(=O)c1cccnc1,4%,-9%,-8,1.2%
S=C(NCc1ccncc1)Nc1ccc(Br)cc1Cl,11%,-14%,x,7.4%
O=C(Nc1cccc(F)c1)NC1CC2CCCC(C1)N2C1CC1 (stereo not given),-8%,19%,0,-1.4%
Nc1nc2ccc(OC(F)(F)F)cc2s1,-29%&-3%,-8%,-10&-13&1&1,-0.8%

# High-throughput results from PubChem BioAssay.
